Assay outcomes from PubChem.
SARS PLpro yeast: qHTS of Yeast-based Assay for SARS-CoV PLP. AID 485353, 2010. 330,000 compounds, 0.19% hits. S. cerevisiae expressing SARS-CoV PLpro, growth rescue; control for the full effect not named in the record. Potency, µM (titrated, usually from 32.9 µM), without a hit: top-dose activity, positive = growth rescue; note: 0% is about no effect; nearly all actives have a fitted effect of over 55% in size; growth read by luminescence after 48 h
MARV entry inh: qHTS for inhibitors of binding or entry into cells for Marburg Virus | Potency, µM (top dose mostly 37.8 µM), inactives show at the top dose activity change, negative = inhibition, usual class: inhibitors | Marburg virus pseudotyped entry inhibition, cell reporter; control for the full effect not named in the record; about a third of the inactives were read at about 46 µM | 300,000 compounds, 1.8% hits; active = well fitted inhibition curve with a large enough effect; inconclusive = small, poorly fitted or top-dose-only effect, or effect the other way; inactive = flat fitted curve, though single readings scatter; tested in HEK293 cells; about a fifth of its hits are not listed in these tables; note: % is set by controls: 0 for no effect and ±100 for the full control effect; luciferase read-out
Cruzain inh Det: qHTS Assay for Promiscuous and Specific Inhibitors of Cruzain (with detergent); Potency, µM, for inactives: max response, negative = inhibition, most hits filed as inhibitors; Cruzipain (Trypanosoma cruzi), P25779; 200,000 compounds, 0.43% hits; purified cruzain, Z-FR-AMC fluorescence, 0.01% Triton; active = well fitted curve in the direction sought with a large enough effect; inconclusive = small, poorly fitted or top-dose-only effect, or another doubt; inactive = no such curve, though single readings can be large; an effect the other way counts as inactive or inconclusive;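 note: plate controls were neutral wells for no effect and buffer without enzyme for full effect; nearly all actives have a fitted effect of over 40% in size; top concentration of the series not given in the record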
Target sequence (P25779 123-467 limits assumed): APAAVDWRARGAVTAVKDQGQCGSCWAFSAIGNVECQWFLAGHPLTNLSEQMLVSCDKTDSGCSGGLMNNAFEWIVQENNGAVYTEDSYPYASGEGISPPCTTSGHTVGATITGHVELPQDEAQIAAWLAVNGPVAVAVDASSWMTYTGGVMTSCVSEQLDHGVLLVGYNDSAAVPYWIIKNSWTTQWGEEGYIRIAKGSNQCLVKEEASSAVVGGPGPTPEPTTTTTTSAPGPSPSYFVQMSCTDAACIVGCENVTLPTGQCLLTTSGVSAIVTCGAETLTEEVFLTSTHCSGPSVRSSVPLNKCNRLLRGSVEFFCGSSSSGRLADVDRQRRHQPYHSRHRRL
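Z-FR-AMC hydrolysis (2 uM substrate) by cruzain (1.5 nM) monitored kinetically at ex 360/em 450 nm after 15 min room-temperature compound exposure; 0.01% Triton X-100, pH 5.5, 5 mM DTT.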
StopGo reporter: High Throughput Screening for Foot and Mouth Disease Virus Antivirals. human cells with a luciferase reporter of 2A StopGo recoding; control for the full effect not named in the record. Potency, µM (series often up to 57.9 µM), for inactives: top-dose signal change, negative = less light. 410,000 compounds, 1.2% hits; active = well fitted falling curve with a large enough effect; inconclusive = small, poorly fitted or top-dose-only effect; inactive = no such curve, though single readings can be large or run the other way; tested in HEK293T cells; note: % is set by controls: 0 for no effect and ±100 for the full control effect; nearly all actives have a fitted effect of over 45% in size; luciferase light after 4 h
NS1 function inh: qHTS Assay for Inhibitors of Influenza NS1 Protein Function; Potency, µM (top dose mostly 46.1 µM), for the others: at the highest dose activity, positive = more growth; 270,000 compounds, 0.4% hits; S. cerevisiae slowed by influenza A NS1, growth recovery by OD600; note: actives are rising curves; nearly all actives have a fitted effect of over 50% in size
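Read-out: OD600 growth recovery of NS1-expressing budding yeast. Cells grown overnight at 30C in -URA glucose medium, washed, resuspended and diluted 1:100 in 2% galactose assay medium, pH 6.0. Same strain lacking NS1 served as positive control.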
LASV entry inh: qHTS for Inhibitors of binding or entry into cells for Lassa Virus; Lassa virus pseudotype entry inhibition, cell reporter; control for the full effect not named in the record; Potency, µM (series often up to 37.9 µM), for inactives: top-dose activity change, negative = inhibition, usual class: inhibitors; 300,000 compounds, 1.2% hits; active means well fitted inhibition curve with a large enough effect; inconclusive means small, poorly fitted or top-dose-only effect, or effect the other way; inactive means flat fitted curve, though single readings scatter; tested in HEK293 cells; note: % is set by controls: 0 for no effect and ±100 for the full control effect; nearly all actives have a fitted effect of over 50% in size; luciferase read-out
Cruzain noTriton: qHTS Assay for Promiscuous and Specific Inhibitors of Cruzain (without detergent). purified cruzain, Z-FR-AMC fluorescence, no detergent. Potency, µM, for inactives: max response, negative = inhibition, most hits filed as inhibitors. 200,000 compounds, 2.3% hits. AID 1476, 2009; active = well fitted curve in the direction sought with a large enough effect; inconclusive = small, poorly fitted or top-dose-only effect, or another doubt; inactive = no such curve, though single readings can be large; an effect the other way counts as inactive or inconclusive;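 note: plate controls were enzyme without inhibitor for no effect and buffer without enzyme for full effect; nearly all actives have a fitted effect of over 40% in size; top concentration of the series not given in the record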
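Detergent-free condition (0.00005% Triton X-100) in acetate buffer pH 5.5 with DTT. 1.5 nM enzyme and compound were pre-mixed 15 min, then 2 uM Z-FR-AMC substrate added; reaction progress from fluorescence change between first and third reads (60 s).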
RE007 growth inh: qHTS Assay for Inhibitors of the HIV-1 protein Vpr; S. pombe RE007 Vpr strain, BacTiter-Glo ATP luminescence, 24 h; control for the full effect not named in the record; Potency, µM (series often up to 92.2 µM), for inactives: at the highest dose activity change, negative = less growth; AID 651644, 2012; 360,000 compounds, 0.21% hits; active = well fitted falling curve with a large enough effect; inconclusive = small, poorly fitted or top-dose-only effect; inactive = no such curve, though single readings can be large or run the other way;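 note: % is set by controls: 0 for no effect and ±100 for the full control effect; nearly all actives have a fitted effect of over 50% in size; the assay follows cell death caused by Vpr and the record does not say whether a fall means rescue or toxicity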
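Fission yeast strain RE007, carrying one chromosomally integrated HIV-1 vpr copy, was seeded at OD 0.01 in PMG+AL medium with 23 nL pinned compound. After 24 h at 30 °C and 99% humidity, viability was read by BacTiter-Glo luminescence.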
The depositor's hits bear a star; ? = inconclusive; . = not tested or not shown; & = joins results of further samples; [ ] = dose if it differs, or a comment. Unless noted, calls come from the whole dose curve; as a rule, active means well fitted rising curve with a large enough effect; inconclusive means small, poorly fitted or top-dose-only effect; inactive means no such curve, though single readings can be large or run the other way. Potency is the fitted concentration of half-maximal effect. This is a random part of the collection. Share with any hit: about 4.7%.

SMILES	SARS PLpro yeast	MARV entry inh	Cruzain inh Det	StopGo reporter	NS1 function inh	LASV entry inh	Cruzain noTriton	RE007 growth inh
CC(NC(=O)[C@@H](NC(=O)[C@@H]1Cc2ccccc2CN1)C(C)C)c1ccccc1 (some centres undefined)	-1%	-19%[46.1 µM]	.	16%	-5%	-5%[46.1 µM]	.	-10%
COc1cccc(N2CCN(C(=O)C3CCC(CNS(=O)(=O)c4ccc(Br)s4)CC3)CC2)c1 (centres undefined)	.	-24%[46.1 µM]	-2.5%	18µM*	.	0%[46.1 µM]	8%	.
COC(=O)c1cc(-c2c(C)oc3cc(OC(C)C)ccc3c2=O)c(C)o1	0%	-1%	-1.0%	.	-16%	-2%	3%	8%
O=C(COC(=O)/C=C/c1ccccc1Cl)NCc1ccccc1	4%	3%	-3.3%	-4%	5%	-1%	-15%	-15%
CCOC(=O)N1CCN(C(=O)CN(c2ccc(C)cc2C)S(=O)(=O)c2ccccc2)CC1	.	-14%[46.1 µM]	-0.5%	4%	.	?	?	.
Cn1c(=O)c2c(nc(N3CCOCC3)n2Cc2ccccc2Cl)n(C)c1=O	.	2%[46.1 µM]	-3.1%	-1%	.	0%[46.1 µM]	-13%	.
CCCCCC(=O)NC(=S)Nc1ccc(NC(=O)c2ccco2)cc1	-13%	4%[46.1 µM]	-17%	-23%	-15%	-5%	-7%	-6%
COc1cc(NC(=O)c2ccc(C)c(Cl)c2)ccc1NC(=O)c1cc2ccccc2o1	.	-8%[46.1 µM]	0.3%	-13%	.	6%[46.1 µM]	-5%	.
CCOCCCNc1ccc(N2C(=O)C3CCCCC3C2=O)cc1[N+](=O)[O-] (centres undefined)	-1%	4%[46.1 µM]	.	8%	.	5%	.	-21%
Cc1nc(NC(=O)/C=C/c2ccc(C(C)(C)C)cc2)sc1C(=O)N(C)C	-4%	-24%	-17%	?	-4%	?	?	15%
CCCCn1c(N)c(N(CCOC)C(=O)CSCc2ccc(C)cc2)c(=O)[nH]c1=O	2%	2%	.	-11%	.	10%	.	-25%
N#CCc1nn(-c2ccccc2)c2ncnc(N)c12	-1%	.	.	2%	-2%	.	.	14%
CCC(=O)NCCn1c(C)cc2ccccc21	-7%	.	0.0%	-1%	-103%	.	8%	12%
CN1CCC(=NNC(=O)CN(c2cccc(Br)c2)S(C)(=O)=O)CC1	0%	13%	.	1%	.	6%	.	3%
CS(=O)(=O)N(Cc1cc2ccccc2[nH]c1=O)C1CCCCC1	2%	0%	4.8%	-12%	-15%	1%	3%	1%
O=C(CN1C(=O)CC(c2ccccc2)=Nc2ccccc21)NCc1ccco1	1%	-1%	-0.1%	-1%	10%	5%	-3%	12%
Cc1oc2ncn(C)c(=O)c2c1C(=O)NCc1ccc(Cl)cc1	.	.	-1.6%	18%	.	2%[46.1 µM]	-10%	.
CCC1CN(C(=O)N2CCC(C(=O)NCc3cc(OC)c(OC)c(OC)c3)CC2)c2ccccc2O1 (centres undefined)	1%	0%&0%[46.1 µM]	-2.6%	-6%&0%	-21%	?	-5%	13%
NC(N)=N/N=C/c1ccc(Cl)c([N+](=O)[O-])c1	0%	?	.	-25%	6%	11%	.	7%
CCN(CC)c1ccc(NC(=O)COC(=O)C23CCC(=O)N2c2ccccc2S3)cc1 (centres undefined)	-10%	-8%	3.9%	-16%	11%	-7%	-21%	23%
c1nc(NCC2CCCO2)c2[nH]cnc2n1 (centres undefined)	.	?	.	15%	5%	35%	.	12%
Cc1ccccc1Cn1nc(C)c(NC(=O)c2cc(CC(C)C)on2)c1C	-2%	?	-5.9%	-16%&-24%	-6%	?	-7%	-14%
COc1ccc(CC(=O)OCC(=O)Nc2cccc(Cl)c2)cc1	-16%	?	.	-27%	.	-14%	.	27%
c1ccc(Cc2ccc(OCCn3ccnc3)cc2)cc1	-10%	.	.	?	-55%	.	.	?
Cc1cccc(C(=O)N2CCC(N3CCC(C(=O)N4CCOCC4)CC3)CC2)c1	-5%	-10%	.	-17%	-5%	-13%	.	-28%
CC(=O)Nc1sc(NC(=O)c2ccc(Cl)cc2)nc1-c1cccs1	-3%	?	2.8%	7%	0%	4%	-2%	-7%
Cc1cccc2c1NC(=O)C2=O	.	-1%	.	-7%	.	5%	.	4%
CCOCC(=O)Nc1cc(C(=O)Nc2ccccc2)ccc1Cl	-9%	1%	3.6%	.	-36%	-2%	4%	-11%
Cc1cc(C)n2nc(SC(C)C(=O)N(C)C3CCCCC3)nc2n1 (centres undefined)	-4%	-2%	.	-3%	.	?	.	-4%
COc1ccc(N2CC(O)(c3ccc(F)cc3)[N+]3=C2CCCC3)cc1 (centres undefined)	3%	-3%	.	-25%	.	12%	.	-4%
COc1ccc(C2/C=C\CC(NC(=O)OCC3c4ccccc4-c4ccccc43)CC(=O)N2Cc2ccccc2F)cc1 (centres undefined)	1%	.	0.8%	-7%	.	.	13µM*	-6%
Cc1ccc(/C=C2\CCOC2=O)cc1	1%	20%[46.1 µM]	.	22%	-2%	10%	.	-7%
COc1ccc(N=C2SC(C(=O)O)CC(=O)N2C)cc1 (centres undefined)	5%	14%	-1.2%	-14%	-8%	28%	-5%	-7%
O=C(CSc1nc(SCC(=O)NCc2ccccc2)n(-c2ccccc2)n1)NCc1ccccc1	4%	?	-7.0%	12%	-12%	?	3%	-9%
Cc1ccc(S(=O)(=O)N2CCC(C(=O)N[C@H](C(=O)N3CCN(C)CC3)C(C)C)CC2)cc1	2%	4%	-0.9%	4%	-4%	6%	9%	3%
NNC(=O)Cn1c(-c2ccccn2)nc2ccccc21	-1%	-22%	.	14%	4%	8%	.	1%
COCC(=O)Nc1ccc(C)c(Cl)c1	0%	-3%	4.9%	12%	-7%	13%	-10%	-12%
CC(=O)OC1CCC2(C)C(=CCC3C2CCC2(C)C3CC3ON=C(C)C32)C1 (centres undefined)	.	5%[46.1 µM]	.	-9%	.	3%[46.1 µM]	.	-2%
Cc1cc(C)n(-c2nnc(SCC(=O)NC3CCCC3)c3ccccc23)n1	-7%	0%	-2.4%	0%	-4%	14%	?	-11%
CS(=O)(=O)c1ccc(Cl)c(NC(=O)CCl)c1	7%	?	.	25µM*	.	18µM*	.	2%

Some values from the results shown.
Cc1cc(C)n(-c2nnc(SCC(=O)NC3CCCC3)c3ccccc23)n1 in NS1 function inh → -4%
CCOCC(=O)Nc1cc(C(=O)Nc2ccccc2)ccc1Cl in RE007 growth inh → -11%
c1ccc(Cc2ccc(OCCn3ccnc3)cc2)cc1 in SARS PLpro yeast → -10%
COc1ccc(C2/C=C\CC(NC(=O)OCC3c4ccccc4-c4ccccc43)CC(=O)N2Cc2ccccc2F)cc1 (centres undefined) in Cruzain noTriton → 13µM*
NNC(=O)Cn1c(-c2ccccn2)nc2ccccc21 in RE007 growth inh → 1%
COc1ccc(N=C2SC(C(=O)O)CC(=O)N2C)cc1 (centres undefined) in SARS PLpro yeast → 5%
CS(=O)(=O)c1ccc(Cl)c(NC(=O)CCl)c1 in SARS PLpro yeast → 7%

The listing picks up, starting 3 compounds before the break.
SMILES	SARS PLpro yeast	MARV entry inh	Cruzain inh Det	StopGo reporter	NS1 function inh	LASV entry inh	Cruzain noTriton	RE007 growth inh
CC(=O)OC1CCC2(C)C(=CCC3C2CCC2(C)C3CC3ON=C(C)C32)C1 (centres undefined)	.	5%[46.1 µM]	.	-9%	.	3%[46.1 µM]	.	-2%
Cc1cc(C)n(-c2nnc(SCC(=O)NC3CCCC3)c3ccccc23)n1	-7%	0%	-2.4%	0%	-4%	14%	?	-11%
CS(=O)(=O)c1ccc(Cl)c(NC(=O)CCl)c1	7%	?	.	25µM*	.	18µM*	.	2%
Cc1ccc([N+](=O)[O-])cc1NC(=O)c1ccc(-c2ccccc2)cc1	-15%	?	3.0%	-8%	?	-26%	13µM*	48%
Nc1ccc(S(=O)(=O)Nc2nccc(/C=C/c3ccc(Cl)cc3Cl)n2)cc1	0%	?	.	13%	9%	8%	.	4%
Nc1nc(COc2ccccc2)cs1	-6%	16%	-1.2%	54%[activator]	-10%	12%	4%	-18%
Cc1cccc(C)c1Nc1c(-c2cccs2)nc2ncccn12	.	?	-0.2%	-15%	.	1%[46.1 µM]	-8%	.
O=C(O)CSC1CC(=O)N(c2ccc(Cl)cc2)C1=O (centres undefined)	-18%	?	-6.6%	8%	-11%	5%	0%	18%
CN(C)c1nnnn1-c1ccc(Oc2ncc(C(F)(F)F)cc2Cl)cc1	-3%	?	.	?	.	-29%	.	26%
O=C(Nc1cccc([N+](=O)[O-])c1)ONC1=NCCCCC1	-3%	4%[46.1 µM]	.	5%	-49%	11%	.	-10%
COc1cc(CNCCN2CCOCC2)ccc1OCc1ccc(Cl)cc1	-5%	?	2.6%	-11%	-6%	-15%	-8%	-7%
O=C(Nc1cccc(Cl)c1N1CCCC1)c1ccco1	-23%	-26%[46.1 µM]	.	-9%	-19%	-10%[46.1 µM]	.	2%
Cc1nn(-c2ccc3ccccc3c2)c(=O)c2ccccc12	-1%	.	.	50%[activator]	-8%	.	.	-17%
COc1cccc(/C=C/C(=O)Nc2ccc3nc(N4CCN(C)CC4)cc(C)c3c2)c1OC	.	?	-12%	-23%	.	?	-4%	.
O=C(CN1CCCCC1)Nc1ccccc1-c1ccccc1	6%	?	6.2%	.	1%	-1%	7%	-10%
Cc1ccc(C(=O)NC(=S)NCC2CCCO2)cc1[N+](=O)[O-] (centres undefined)	0%	?	.	16%	1%	0%[46.1 µM]	.	-1%
COc1cc(C2CC(=O)Nc3cc(C)c(C)cc32)cc(OC)c1OC (centres undefined)	-6%	-22%	-3.6%	-11%	3%	?	24%	5%
